Screening data (PubChem BioAssay)
RN4220 kill – kills Staphylococcus aureus RN4220 | 0.33% of 330,000 active | inhibition, % (no concentration beside the values) | AID 1259311 | S. aureus RN4220 growth, OD600, 16 h;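 active = z-score of -3 or lower and OD600 up to 0.18 on both plates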;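 also: plate controls were untreated cells for no effect and reference antibiotic for full effect; stock transfer was 100 nL into about 80 µL; one replicate is shown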
Sa ugtP lethal – kills S. aureus RN4220 lacking UgtP. S. aureus RN4220 ugtP deletion, OD600 growth, 16 h; some inactives read as strong as hits. growth inhibition, % (concentration not given with the values). 0.54% of 330,000 active. AID 1259309;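 active = z-score under -3 and OD600 up to 0.15 on both plates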;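 also: plate controls were untreated wells for no effect and antibiotic for full effect; wells of about 80 µL received 100 nL stock; the first replicate is given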
PrP UTR inh – inhibition of PrP 5' UTR reporter expression; 0.35% of 340,000 active; AID 488862; cell-based PrP 5' UTR mRNA reporter, plate reader; inhibition, % (test concentration not listed);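 active = every replicate at 50% or more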;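 also: 0 = median of the neutral control wells; tested in H4 reporter cells; numbers are from one replicate; inactives centre near -14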
Bead autofluor – flagged as autofluorescent in microsphere protease counterscreen | compound autofluorescence counterscreen, microsphere flow cytometry; hits give high values | fluorescence intensity (no concentration beside the values) | 3.1% of 360,000 active;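 active = at least 3 SD above the mean of all compounds, about 16000 in these data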;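 also: 100 nL of 1 mM stock went into each well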
BJeLR lethal – BJeLR cell viability loss; AID 1554; 0.17% of 300,000 active; BJeLR (HRASV12) viability, CellTiter-Glo ATP luminescence, 48 h; reference of the scale not given here; inhibition, % (concentration not given with the values);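 active = replicate mean above 50%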;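 also: 50 nL library stock added to about 25 µL; numbers are from one replicate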
Mtb hypoxia rep – inhibitors of hypoxia-regulated fluorescent reporter in Mycobacterium tuberculosis; M. tuberculosis hypoxia-regulated fluorescent reporter, fluorescence; fluorescence inhibition, % (test concentration not listed); 0.1% of 300,000 active;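 active = 35 to 45% if threefold the growth effect, above 45% if 1.5-fold the growth effect; inactive = the rest, general growth blockers included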;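 also: wells of about 50 µL received 100 nL stock; 0% = vehicle wells and 100% = reference inhibitor wells; whole bacteria with a GFP reporter of the hypoxia response; strong numbers were not always called active; many hits fall short of the cut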
Mtb hypoxia rep growth – also measured in Mtb hypoxia rep; calls as there; growth inhibition, %; measured here: M. tuberculosis growth (absorbance);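 0% = vehicle and 100% = reference antibiotic; read after six days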
An asterisk follows results filed as active; . = not tested or not shown.

A first look (seven entries):
SMILES	RN4220 kill	Sa ugtP lethal	PrP UTR inh	Bead autofluor	BJeLR lethal	Mtb hypoxia rep	Mtb hypoxia rep growth
Cc1ccc(C(=O)O/N=C(\N)Cc2cccs2)cc1[N+](=O)[O-]	4.3	2	-18	5476	0	14	8
CC(C)c1nc2sc3ccccc3c(=O)c2c(=O)n1Cc1ccccc1	2.7	-9	-5	3628	1	3	6
Cc1ccc(C(=O)N/N=C2\CCSC2)cc1[N+](=O)[O-]	.	.	-8	11622	-1	.	.
Cc1ccccc1C(=O)N1CCc2cc(-c3nc(NC(=O)Cc4ccc5c(c4)OCO5)sc3C)ccc21	.	.	-7	10501	-10	.	.
Clc1cccc(C(Cc2nc3ccccc3[nH]2)=NNc2ccccc2)c1	-17	-3	.	.	.	8	1
Cc1[nH]c2ccccc2c1C(=O)CN1CCC(C(N)=O)(N2CCCCC2)CC1	4.0	11	-14	3783	21	.	.
O=C(COc1ccc(Cl)cc1)NCCC1=CCCCC1	8.2	8	-23	10115	-7	6	3

The whole of this part, repeating the preview:
SMILES	RN4220 kill	Sa ugtP lethal	PrP UTR inh	Bead autofluor	BJeLR lethal	Mtb hypoxia rep	Mtb hypoxia rep growth
Cc1ccc(C(=O)O/N=C(\N)Cc2cccs2)cc1[N+](=O)[O-]	4.3	2	-18	5476	0	14	8
CC(C)c1nc2sc3ccccc3c(=O)c2c(=O)n1Cc1ccccc1	2.7	-9	-5	3628	1	3	6
Cc1ccc(C(=O)N/N=C2\CCSC2)cc1[N+](=O)[O-]	.	.	-8	11622	-1	.	.
Cc1ccccc1C(=O)N1CCc2cc(-c3nc(NC(=O)Cc4ccc5c(c4)OCO5)sc3C)ccc21	.	.	-7	10501	-10	.	.
Clc1cccc(C(Cc2nc3ccccc3[nH]2)=NNc2ccccc2)c1	-17	-3	.	.	.	8	1
Cc1[nH]c2ccccc2c1C(=O)CN1CCC(C(N)=O)(N2CCCCC2)CC1	4.0	11	-14	3783	21	.	.
O=C(COc1ccc(Cl)cc1)NCCC1=CCCCC1	8.2	8	-23	10115	-7	6	3
Oc1ccc(-c2csc(NCc3ccco3)n2)cc1	13	-6	-98	8712	-3	2	8
O=C(/C=C/c1ccccc1)c1ccoc1	.	.	-35	3143	10	.	.
CC(O)[C@H]1CNC(=O)C(=O)N1CCCCC1CCCCC1 (stereo partly specified)	.	.	-8	3992	4	.	.
CCn1nc(C)c(/C=N/NC(=O)c2ccc3c(c2)c(C)c(C)n3Cc2ccccc2)c1C	.	.	0	3135	6	.	.
CCCc1c(C(=O)N/N=C/c2ccco2)nnn1-c1nonc1N	.	.	-2	5820	8	.	.
COc1cccc(NC(=O)c2ccc(S(=O)(=O)N3CCCC3)cc2)c1	0.6	1	1	4135	4	2	0
CC(=O)c1ccc(NC(=O)CSc2ccc3nnc(-c4ccccn4)n3n2)cc1	3.1	0	4	5817	0	-5	1
CC1=NN(c2ccccc2)C(=O)C1C(=O)c1ccc(Cl)cc1 (stereo unspecified)	28	4	-25	9980	4	-68	-9
O=C(Cc1csc(Nc2nc(=S)[nH]c3ccccc23)n1)NCc1ccc(Cl)cc1	-3.2	-39	-15	23044*	-1	-8	5
COc1cc(C)cc(C(=O)C=Cc2ccccc2)c1O	-2.1	2	-31	3732	.	6	6
O=C(N/N=C/c1ccco1)c1cc(-c2ccc(Cl)s2)[nH]n1	.	.	-26	4487	1	.	.
O=C(CNC1=NCCC1)c1ccc2c(c1)OCCO2	2.6	-2	-39	2713	0	.	.
O=[N+]([O-])c1ccccc1S(=O)(=O)NCCSc1ccccc1	9.7	0	3	3387	-1	-6	-9
CCCC(=O)N(Cc1cc(=O)[nH]c2ccccc12)c1ccccc1C	4.1	-1	3	3721	-1	6	3
COc1cccc(C2=CC(=O)CC(c3ccc(Cl)cc3)C2)c1OC (stereo unspecified)	5.7	14	.	.	.	19	10
CCOc1ccc(NC(=S)N(CCOC)C2CCN(C(C)C)CC2)cc1	1.5	1	-8	3537	0	5	4
O=C(CN1CC[C@@]2(O)CCCC[C@H]2[C@@H]1c1ccc(F)cc1)NCc1ccco1	-0.9	-7	-22	4324	-8	-3	0
Cc1cccc(OCc2nc(C#N)c(NCc3ccc4c(c3)OCO4)o2)c1	-0.4	-14	-8	4873	-8	-6	13
Cc1ccc(C)c(-n2nnnc2SCC(=O)Nc2c(C)n(C)n(-c3ccccc3)c2=O)c1	1.6	8	-30	9254	-6	11	7
Cc1ccc(C)c(NC(=S)NCc2ccc3[nH]c4c(c3c2)CCCC4)c1	25	-14	-1	6880	-9	-1	0
N=C1C(=O)OCC1c1ccccc1NC(=O)CN1CCOCC1 (stereo unspecified)	6.0	4	-16	6655	3	9	13
CCC(=O)OC1(c2ccccc2)C(C)CN(C)CC1C (stereo unspecified)	0.5	2	-13	4332	22	6	-3
CCCNC(=O)CN1C(=O)NC(c2ccccc2)(c2ccccc2)C1=O	2.9	3	2	4850	-15	1	-11
CCCCN(C)CCCNC(=O)c1cn(C)c2ccc(S(=O)(=O)N(C)C3CCCCC3)cc2c1=O	-5.6	-5	-7	5428	-8	-4	-6
CCOc1ccc(Nc2nc3c(c(=O)[nH]2)CCC3)cc1	-3.4	-14	-12	16524*	.	-4	-7
O=c1cc(-c2ccccc2)[nH]n1-c1nc2ccccc2[nH]1	36	-1	-11	4525	-9	8	3
C=CCOc1ccc(C=Nc2ccc(Cl)cc2)c(O)c1	4.3	5	-19	2592	-14	8	10
O=C1CCCN1C(=O)c1cncc(Br)c1	7.7	-1	-23	6656	2	7	10
COC(=O)NNC(=O)c1cccc(C)c1	-0.5	-2	-37	9684	1	-2	-3

Structural class, the compounds so far with an aryl methoxy group
SMILES	RN4220 kill	Sa ugtP lethal	PrP UTR inh	Bead autofluor	BJeLR lethal	Mtb hypoxia rep	Mtb hypoxia rep growth
COc1cccc(NC(=O)c2ccc(S(=O)(=O)N3CCCC3)cc2)c1	0.6	1	1	4135	4	2	0
COc1cc(C)cc(C(=O)C=Cc2ccccc2)c1O	-2.1	2	-31	3732	.	6	6
COc1cccc(C2=CC(=O)CC(c3ccc(Cl)cc3)C2)c1OC (stereo unspecified)	5.7	14	.	.	.	19	10

(continued)
SMILES	RN4220 kill	Sa ugtP lethal	PrP UTR inh	Bead autofluor	BJeLR lethal	Mtb hypoxia rep	Mtb hypoxia rep growth
CCOC(=O)N1CCN(c2nc(C)c3c(n2)CCCC3=O)CC1	4.4	-7	-34	9401	-5	12	7
Cc1ccc(Cn2c(C)c3cnn(CC(=O)NCCN4CCOCC4)c(=O)c3c2C)cc1	-8.8	-8	-21	5135	.	1	6
C=CCc1ccc(OCCCCOc2ccc(C(=O)O)cc2)c(OC)c1	11	24	-22	4924	1	6	-5
O=C(NNc1nc2ccccc2s1)C1CC1	9.2	9	-5	8541	0	22	11
Cc1nnc2sc(-c3ccc(N(C)C)cc3)nn2c1=O	0.9	3	-35	4012	9	13	-1
COc1ccc(C(O)(C(=O)NNc2ccc(C)cc2)c2cccs2)cc1 (stereo unspecified)	-0.9	6	-3	3369	9	8	5
COC(=O)C=Cc1cnc[nH]1	0.3	-3	.	.	.	-3	-8
Cc1c(C)n(CCCN(C)C)c2ncnc(NC3CCCCC3)c12	5.2	11	-8	3901	16	-3	-6
CCC(=O)N1CC2(CC(c3cccc([N+](=O)[O-])c3)=NO2)C[C@H]1C(=O)NCC(N)=O (stereo partly specified)	.	.	-9	3752	-5	.	.
C=CCn1c(SCc2ccc(C#N)cc2)nnc1-c1ccccc1	1.8	-3	-11	22580*	4	0	7
COc1cc(C(=O)N[C@H](C(=O)Nc2nnc(C3CC3)s2)C(C)C)cc(OC)c1OC	3.0	1	-4	4216	4	-2	10
Cc1occc1C(=O)N1CCCC(Nc2ccc(F)c(F)c2)C1 (stereo unspecified)	4.6	5	-32	5549	-3	17	3
CC(=O)C(=NNc1cccc(C)c1)N1CCOCC1	4.9	-3	.	.	.	1	11
CCCS(=O)(=O)c1c(S(=O)(=O)CCC)c2ccc(C(N)=O)cn2c1C(=O)c1ccc(F)cc1	-0.3	-12	-12	5185	6	4	3
Cc1cc(=O)oc2c(C)c(OCC(=O)NCCc3ccc(S(N)(=O)=O)cc3)ccc12	-1.0	-5	-8	4617	5	-8	0
Cc1noc(C)c1C(=O)Nc1ccc(F)cc1F	2.0	4	-4	4729	-9	.	.
C=CCn1c(SCC(=O)NC(=O)NC2CCCC2)nnc1C1CCCCC1	10	-8	-23	3988	-2	9	6
C[C@]12CCC3C(CC[C@H]4C[C@H](O)[C@H](O)C[C@]34C)C1CC[C@@H]2O (stereo partly specified)	3.5	4	0	3846	.	1	5
CC(C)Cc1nnc(NC(=O)CCC(=O)N2CCN(c3ccccc3F)CC2)s1	-2.4	9	-13	5640	18	5	-5
NC(=O)COC(=O)c1ccc(Cl)c(S(=O)(=O)N2CCCCCC2)c1	12	-64	1	4089	8	10	3
Clc1cccc(-c2ccc(/C=N/n3cnnc3)o2)c1	.	.	-16	6747	-14	.	.
O=C(NCc1nc2ccccc2[nH]1)C1=C[C@H](C2CCCCC2)C[C@H](OCc2ccc(CO)cc2)O1	.	.	-9	4087	2	.	.
COc1cccc(C2CC(c3ccc(Br)cc3)=NN2C(=O)c2ccncc2)c1OC (stereo unspecified)	1.2	2	-15	3603	-9	0	-2
CN1CCC(=NNC(=O)C(=O)NCc2ccccc2)CC1	1.7	4	-25	10744	-5	3	3

Filtered by structure, the entries above containing a cyano group (two)
SMILES	RN4220 kill	Sa ugtP lethal	PrP UTR inh	Bead autofluor	BJeLR lethal	Mtb hypoxia rep	Mtb hypoxia rep growth
Cc1cccc(OCc2nc(C#N)c(NCc3ccc4c(c3)OCO4)o2)c1	-0.4	-14	-8	4873	-8	-6	13
C=CCn1c(SCc2ccc(C#N)cc2)nnc1-c1ccccc1	1.8	-3	-11	22580*	4	0	7

(continued)
SMILES	RN4220 kill	Sa ugtP lethal	PrP UTR inh	Bead autofluor	BJeLR lethal	Mtb hypoxia rep	Mtb hypoxia rep growth
OC[C@H]1OC(O)[C@@H](O)[C@@H](O)[C@@H]1O (stereo partly specified)	.	.	-14	5504	-14	.	.
CC(C(=O)NCCSCc1cccc(Cl)c1)N(c1ccccc1)S(C)(=O)=O (stereo unspecified)	2.3	2	-1	3769	-24	4	10
CCN(CC)C(=O)Cc1c(O)c2ccccc2[nH]c1=O	6.0	3	.	4393	-2	2	13
FC(F)(F)c1ccc(Oc2ccc3ccccc3c2Br)nc1	-2.8	1	-6	2317	3	10	6
Cc1ccc(NC(=O)CN2C(=O)SC(=Cc3cccn3-c3cccc(C(=O)O)c3)C2=O)cc1C	8.7	0	.	.	.	1	8
CC1(C)C(N(O)C(=O)Nc2ccccc2)N(c2cccc(Cl)c2)C(=O)N1O (stereo unspecified)	-3.5	-4	-35	4851	-3	.	.
COc1ccc(C2=CC(=O)CCC2)cc1	14	12	-12	4144	-18	22	9
O=C(NNC(=O)c1ccncc1)Nc1ccc(Cl)cc1	0.1	-7	-8	3850	.	18	8
CCOCc1nnc(NC(=O)COc2ccc3c(c2)OCO3)s1	1.1	3	-32	3711	-7	-2	-1
O=C(COC(=O)CNC(=O)c1ccccc1F)Nc1ccc2c(c1)OCO2	7.4	1	-22	4967	.	13	2
CCCCOc1ccc(C(=O)NCC(=O)N2CCN(C(=O)c3ccco3)CC2)cc1	-5.9	-4	-14	4662	4	-7	-3
COCCn1c(CN2CCC(Cc3ccccc3)CC2)nc2c1c(=O)n(C)c(=O)n2C	2.4	-7	-11	2952	.	.	.
CC(C)(C)NC(=O)c1nc2nc(-c3ccccc3)cc(C(F)(F)F)n2n1	5.2	6	-6	2230	0	13	10
CC1CN(C(=O)COC(=O)/C=C/c2ccc(C(F)(F)F)cc2)CC(C)O1 (stereo unspecified)	-0.8	1	-17	8564	.	10	11
Cc1ccc(-c2noc(C3CCCN(C(=O)c4cccc(F)c4)C3)n2)cc1 (stereo unspecified)	6.2	12	-2	4072	-1	-1	-4
Cc1cccc(N2CN(Cc3ccco3)CNC2=S)c1C	4.9	19	-8	7101	1	-9	-3
CC(=O)NN=C(C)CC(=O)Nc1ccc2c(c1)OCCO2	1.2	3	.	.	.	0	0
O=C(Nc1nnc(C2=COCCO2)o1)c1cccc(F)c1	53	20	-16	6506	6	-4	-7
Clc1cccc(NN=Cc2ccc(N3CCOCC3)cc2)c1	0.8	0	.	.	.	0	5
CCOC(=O)C1(c2ccccc2)CCN(CCC(=O)Nc2ccc(F)cc2)CC1	-0.3	-2	1	3652	.	-1	7
